From PubChem
RGS16-Gao HTS: modulates binding between human RGS16 and Galphao. actives 0.38% (n = 220,000). AID 1441. bead-based flow cytometry RGS16-Galphao binding, fluorescence; actives lie on both sides. binding response (% of control), % at 10 µM. O15492+P09471;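 active = below 25% or above 175%, edge rows of some plates excepted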;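 also: Galphao activated by GDP with aluminum fluoride before binding; 100% = wells without compound and 0% = beads without RGS; some results beyond the cut were filed as inactive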
Target sequence (O15492 whole entry, looked up): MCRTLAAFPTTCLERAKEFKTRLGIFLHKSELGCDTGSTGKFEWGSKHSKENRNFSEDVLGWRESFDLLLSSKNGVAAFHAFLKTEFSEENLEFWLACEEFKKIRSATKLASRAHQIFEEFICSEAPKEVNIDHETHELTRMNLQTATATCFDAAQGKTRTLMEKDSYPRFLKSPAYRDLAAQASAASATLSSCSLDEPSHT
Target sequence (P09471 whole entry, looked up): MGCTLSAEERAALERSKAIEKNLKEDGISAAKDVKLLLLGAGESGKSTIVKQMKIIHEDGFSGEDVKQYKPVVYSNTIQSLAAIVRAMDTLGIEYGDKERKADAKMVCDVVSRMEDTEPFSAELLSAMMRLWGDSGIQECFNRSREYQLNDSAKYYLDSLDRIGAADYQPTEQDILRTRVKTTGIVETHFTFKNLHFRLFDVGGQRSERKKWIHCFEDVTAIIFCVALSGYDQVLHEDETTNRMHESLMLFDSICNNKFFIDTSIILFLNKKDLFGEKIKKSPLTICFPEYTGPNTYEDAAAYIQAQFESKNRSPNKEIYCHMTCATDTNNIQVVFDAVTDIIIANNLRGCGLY
PKD1 kinase inh: PKD1 (human) kinase inhibition. Q15139. PKD1 kinase fluorescence polarization assay. inhibition, %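 (about 10 µM by stock and volumes)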. actives 0.056% (n = 200,000);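 active = inhibition of 50% or more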;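 also: controls were vehicle for no effect and a reference inhibitor for full effect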
HSV augment: HSV replication enhancement; AID 1956; HSV replication augmentation in cells, fold increase; actives 0.005% (n = 220,000); maximum fold increase;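 active = peak rise of 1.5-fold or more in the series; tested in PC3 cells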;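 also: first round at 10 µM; read as green reporter fluorescence; hits show the peak of a series up to 25 µM; 1 = signal of infected wells without compound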
INS promoter inh: TRM-6 insulin promoter activity inhibition; TRM-6 cells (human fetal islet line), insulin promoter-eGFP reporter, imaging; reporter expression induced with tamoxifen; inhibition, % at 2 µM; actives 0.9% (n = 130,000); AID 1273;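 active = inhibition above the mean plus 3 SD, with well images judged a real hit on visual review, cut at about 60% in these data, passing the limit was not always enough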
GALR2 agonist: agonists of human galanin receptor 2 (GALR2); O43603; GALR2-expressing cells, agonist activation read-out; activation, %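 (tested at 5 µM)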; actives 0.48% (n = 140,000); AID 803;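 active = above mean plus 3 SD of all compounds, about 5% in these data, not always enough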;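 also: 0% = vehicle buffer wells and 100% = reference agonist at full effect; tested in CHO reporter cells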
Target sequence (O43603 whole entry, looked up): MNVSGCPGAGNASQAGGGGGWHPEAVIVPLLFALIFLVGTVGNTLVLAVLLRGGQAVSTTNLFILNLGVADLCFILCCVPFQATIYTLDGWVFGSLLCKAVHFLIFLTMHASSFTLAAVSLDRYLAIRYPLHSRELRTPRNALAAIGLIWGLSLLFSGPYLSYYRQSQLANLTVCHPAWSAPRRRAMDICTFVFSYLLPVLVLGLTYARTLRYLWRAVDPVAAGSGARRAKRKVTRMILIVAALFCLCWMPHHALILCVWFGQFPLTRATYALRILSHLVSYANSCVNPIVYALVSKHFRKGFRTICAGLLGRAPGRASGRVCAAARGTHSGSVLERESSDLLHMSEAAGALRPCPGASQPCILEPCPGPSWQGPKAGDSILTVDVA
INS promoter inh cell count: second read-out of INS promoter inh, no call of its own (marks repeat the call); normalized cell count, %; measured here: cell count, toxicity; reference of the scale not given here;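 cells exposed to compound for 48 h; stained nuclei by imaging scaled within each plate; lower means fewer cells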
HSV augment primary fold: recorded beside HSV augment, whose call it bears; fold increase; compound at 10 µM; measured here: primary screen fold increase 10 uM; tested in PC3 cells;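 GFP signal in the first replicate; 1 = infected wells without compound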
Numbers without * were called inactive; i = inactive; x = no result given.

Results follow in this order: RGS16-Gao HTS	PKD1 kinase inh	HSV augment	HSV augment primary fold	INS promoter inh	INS promoter inh cell count	GALR2 agonist
(1) COc1ccc(-c2nnn(CC(=O)NCc3ccccc3)n2)cc1OC
→ 102	4	i	0.78	-277	113	-0.8
(2) CSc1sc(C(=O)OC(C)C)c2c1C(=O)CC(C)(C)C2
→ 98	x	i	0.96	x	x	x
(3) CCn1c(C(=O)N2CCc3ccccc3C2)cc2oc3ccccc3c21
→ 104	-7	i	0.88	34	106	-3.2
(4) Cn1cnnc1SCC(=O)Nc1ccc(OC(F)F)cc1
→ 101	-5	i	1.1	x	x	x
(5) O=C(NCCCN1CCOCC1)C(=O)N/N=C/c1ccc2c(c1)OCO2
→ 98	0	i	1.1	33	98	x
(6) COC(=O)C1=C(C)N(C)C(=S)NC1c1ccc(Cl)cc1 (centres undefined)
→ 100	-11	i	0.93	33	95	-2.0
(7) O=[N+]([O-])c1ccc2nc(SCc3cn4cccnc4n3)[nH]c2c1
→ 103	x	i	1.1	x	x	x
(8) CCCn1c(NC(=O)c2ccc(Br)cc2)nc2ccccc21
→ 102	-12	i	0.86	22	124	-2.3
(9) CS(=O)(=O)NC1c2cccc3cccc(c23)C1N1CCOCC1 (centres undefined)
→ 105	-9	i	0.95	-375	57	-1.6
(10) NC(=O)CC(NC(=O)c1ccccc1)c1ccc(NCCc2ccc(Cl)cc2)c([N+](=O)[O-])c1 (centres undefined)
→ 103	x	i	0.97	x	x	x
(11) COC(=O)CNC(c1ccccc1)c1cc(Br)ccc1N (centres undefined)
→ 99	x	i	1.1	x	x	x
(12) CC(C)(C)C(=O)CSc1nnc(Nc2ccccc2)s1
→ 98	4	i	1.2	x	x	x
(13) O=C(/C=C/c1ccccc1)Nc1cc(C(=O)O)cc(C(=O)O)c1
→ 98	4	i	0.89	x	x	x
(14) O=C1CC(c2cccc(Cl)c2)CC(O)=C1C=Nc1cccc(Cl)c1 (centres undefined)
→ 106	4	i	0.92	-67	145	0.2
(15) O=C(CSc1cccc[n+]1[O-])c1ccc(Cl)cc1
→ 110	2	i	0.83	x	x	x
(16) Cc1nonc1NC(=O)CSc1nc2ccccc2[nH]1
→ 100	0	i	1	x	x	x
(17) COc1cc2nc(C3CCC3)nc(N3CCN(c4ccccc4OC)CC3)c2cc1OC
→ 106	-8	i	0.68	0	142	1.0
(18) CCCc1cc2c(c(NC(C)=O)n1)c(=O)oc1ccccc12
→ 103	3	i	0.91	-33	40	0.3
(19) COCCNC(=S)NN=C1CCCCCC1
→ 99	-5	i	0.96	-63	76	x
(20) CCOC(=O)c1sc(NC(=O)c2cc(-c3cccc(O)c3)on2)c(C(=O)OCC)c1C
→ 83	-2	x	x	-40	86	-0.7
(21) Cc1cc2c(c(=O)o1)C(C13C=CC(CC1)C3)C(C#N)=C(N)O2 (centres undefined)
→ 99	-5	i	0.91	-50	125	-0.7
(22) COC(=O)c1cc2n(n1)CCCNC2=O
→ 101	-1	i	1.1	x	x	x
(23) CC(C)S(=O)(=O)c1csc(NC(=O)Nc2cccc([N+](=O)[O-])c2)c1Cl
→ 97	x	i	0.83	x	x	x
(24) Cn1nc(C(F)(F)F)c2cc(C(=O)Nc3ccc(F)cc3)sc21
→ 101	x	i	1.1	x	x	x
(25) CCOC(=O)Cc1cc(=O)[nH]c(/N=C(\N)Nc2ccc(C)cc2C)n1
→ 104	-2	i	0.66	16	59	-4.7
(26) CCCCN(C)/C=N/c1c(C#N)cnn1-c1ccc(C)cc1
→ 99	-1	i	0.81	26	116	-1.3
(27) CC1(C)CC2(CCO1)N1CC3(C)CN2CC(C)(C1)C3O (centres undefined)
→ 106	2	i	0.98	10	98	-0.8
(28) CC(C)c1ccc(NC2=NCC(=O)N2Cc2cccs2)cc1
→ 109	3	i	1.1	x	x	x
(29) CC(=O)Nc1ccc(NCN2C(=O)[C@@H]3[C@H]4CC[C@H](C4)[C@@H]3C2=O)cc1
→ 106	-5	i	1.1	x	x	-1.2
(30) CNC(=O)c1nc(C)n(-c2ccc(Cl)cc2Cl)n1
→ 96	-5	i	0.88	x	x	x
(31) O=C(Nc1ccccc1)NC1CCS(=O)(=O)C1 (centres undefined)
→ 99	-6	i	1	-361	63	-2.6
(32) O=C(NCc1ccco1)C1CC(c2cccc([N+](=O)[O-])c2)=NO1 (centres undefined)
→ 114	2	i	0.89	x	x	-1.1
(33) CC(C)Cc1nc(Cl)c(C#N)c2c1CCCC2
→ 100	6	i	0.97	20	86	-0.4
(34) Cc1nc(C)n(CC(O)COc2ccc3ccccc3c2)n1 (centres undefined)
→ 103	2	i	0.89	-36	81	-2.4
(35) COc1ccc(/C=C(\C#N)C(=O)Nc2ccc3[nH]c(=O)[nH]c3c2)cc1
→ 101	x	i	0.89	x	x	x
(36) CCn1cnc2c1c(=O)n(CC(=O)Nc1ccc3c(c1)OC(F)(F)O3)c(=O)n2Cc1ccccc1
→ 114	-8	i	0.91	40	27	-3.4
(37) Cc1cc(C)n(CCC(=O)N=Nc2c(O)[nH]c3ccc(Br)cc23)n1
→ 93	x	i	0.95	x	x	x
(38) O=C(Cn1c2c(c(=O)n3ncnc13)CCC2)N/N=C/c1ccc(Cl)cc1
→ 105	x	i	1.1	x	x	x
(39) CCOc1ccc(-c2nnn(CC(=O)Nc3cccc(OC)c3)n2)cc1OCC
→ 101	-1	i	0.95	8	53	-0.8
(40) CC(C)Oc1ccc(/C=N/NC(N)=S)cc1
→ 90	4	i	0.83	15	140	-0.8
(41) Cc1ccc(CN2CCN(/N=C/c3cccnc3)CC2)c(C)c1
→ 103	0	i	0.88	20	168	-1.4
(42) Cc1ccc(NC(=O)CCC(=O)NNC(=S)Nc2ccccc2)c(C)c1
→ 106	1	i	0.96	57	126	x
(43) CCn1c(CNC(=O)C23CC4CC(CC(C4)C2)C3)nnc1SCC(=O)Nc1nnc(C)s1
→ 101	-4	i	0.98	x	x	-1.6
(44) O=C(Nc1cc(C(F)(F)F)ccc1N1CCCC1)c1cccnc1
→ 113	-11	i	0.99	x	x	-0.7
(45) COc1nc(Cc2ccc(Cl)cc2)nc2ccccc12
→ 88	-4	i	0.91	11	108	x
(46) CC(C)CCNC(=O)C(c1ccco1)N(C(=O)Cn1nnc2ccccc21)c1ccc2c(c1)OCO2 (centres undefined)
→ 96	2	i	0.87	-117	80	0.2
(47) CCOC(=O)NC(Nc1ccc(OC)cc1)(C(F)(F)F)C(F)(F)F
→ 107	-2	i	1	7	111	-0.2
(48) COc1ccccc1CC(=O)O/N=C(\N)Cc1cccc2ccccc12
→ 78	1	i	0.92	-6	113	-2.1
(49) COC(=O)c1cccc(C23CC4(C2)[C@H](CN(Cc2ccc(-c5ccccc5)cc2)[C@@H]4c2ccccc2)C3c2ccccc2)c1 (some centres undefined)
→ 101	x	i	0.97	x	x	x
(50) CCC(=O)N1CCc2cc(S(=O)(=O)N3CCN(C(=O)c4ccco4)CC3)ccc21
→ 103	5	i	1	-34	54	-0.5
(51) COc1ccc(/C=N/NC(=O)COc2cc(C)cc(C)c2)cc1COC(C)=O
→ 115	7	i	0.98	-54	131	0.1
(52) CC(C)=C(NC(=O)c1ccccc1)C(=O)NCc1ccccc1
→ 104	2	i	1.1	x	x	x
(53) CC(Oc1ccc(Cl)cc1Cl)C(=O)NCCCN1CCOCC1 (centres undefined)
→ 167	-6	i	0.82	x	x	-1.8
(54) CN(C)CCCN(Cc1cc2cc3c(cc2[nH]c1=O)OCO3)C(=S)Nc1cccc(Cl)c1
→ 105	-13	i	0.67	x	x	x
(55) O=C(C(c1ccccc1)c1ccccc1)N1CCC(c2nc(-c3ccccc3Cl)no2)CC1
→ 101	0	i	0.8	-350	59	-3.2
(56) CC(=O)c1ccc(N2CCN(C(=S)Nc3ccc(Oc4ccccc4)cc3)CC2)cc1
→ 112	-3	i	0.93	-100	99	x
(57) COc1ccc(C)cc1S(=O)(=O)Nc1cccc(C)c1
→ 111	2	i	0.95	x	x	x
(58) COc1ccc(NS(=O)(=O)c2ccc(S(=O)(=O)N3CCOCC3)cc2)cc1
→ 109	-10	i	0.81	x	x	x
(59) COc1ccc(/C=N/NC(=O)CC(=O)NC2CCCCC2)cc1
→ 101	-1	i	0.95	x	x	x
(60) Cc1cccc(-c2nc(N)nc(N)n2)c1
→ 100	x	i	0.95	x	x	x

An excerpt from above in order of molar mass, highest first.
Results follow in this order: RGS16-Gao HTS	PKD1 kinase inh	HSV augment	HSV augment primary fold	INS promoter inh	INS promoter inh cell count	GALR2 agonist
(17) COc1cc2nc(C3CCC3)nc(N3CCN(c4ccccc4OC)CC3)c2cc1OC
→ 106	-8	i	0.68	0	142	1.0
(3) CCn1c(C(=O)N2CCc3ccccc3C2)cc2oc3ccccc3c21
→ 104	-7	i	0.88	34	106	-3.2
(44) O=C(Nc1cc(C(F)(F)F)ccc1N1CCCC1)c1cccnc1
→ 113	-11	i	0.99	x	x	-0.7

An excerpt of these results, as labelled records.
(57) COc1ccc(C)cc1S(=O)(=O)Nc1cccc(C)c1
  RGS16-Gao HTS: 111
  PKD1 kinase inh: 2
  HSV augment: i
  HSV augment primary fold: 0.95
  INS promoter inh: x
  INS promoter inh cell count: x
  GALR2 agonist: x

(58) COc1ccc(NS(=O)(=O)c2ccc(S(=O)(=O)N3CCOCC3)cc2)cc1
  RGS16-Gao HTS: 109
  PKD1 kinase inh: -10
  HSV augment: i
  HSV augment primary fold: 0.81
  INS promoter inh: x
  INS promoter inh cell count: x
  GALR2 agonist: x

Going on with the list.
Results follow in this order: RGS16-Gao HTS	PKD1 kinase inh	HSV augment	HSV augment primary fold	INS promoter inh	INS promoter inh cell count	GALR2 agonist
(61) O=C(c1ccccc1)c1cccn1CC(=O)N1CCc2ccccc2C1
→ 98	3	i	0.94	x	x	x
(62) O=C(COC(=O)C1(c2ccccc2F)CCCC1)NC1CCS(=O)(=O)C1 (centres undefined)
→ 101	0	i	1	45	100	-1.6
(63) Cc1nnc(SCc2c(Cl)cccc2[N+](=O)[O-])s1
→ 94	-8	i	0.9	-10	98	x
(64) CN(C)C=NC1=NN(c2cccc(C(F)(F)F)c2)CC1
→ 105	-4	i	1.1	-10	119	-2.5
(65) CCCOC(=O)c1ccc(Oc2cn[nH]c2-c2ccc(OC)cc2O)cc1
→ 105	-1	x	x	43	89	1.4
(66) CCCCCSc1nnc2c(n1)OC(C)N(C(C)=O)c1ccccc1-2 (centres undefined)
→ 93	-6	i	0.92	x	x	-2.7
(67) CC(NC(=O)Nc1ccccn1)N1C(=O)C2C3C=CC(C3)C2C1=O (centres undefined)
→ 84	-3	i	0.85	3	70	-0.4
(68) COc1ccc2cc(-c3nc4ccccc4n3C)c(=O)oc2c1
→ 99	1	i	0.68	-271	76	0.3
(69) COc1ccc(N(Cc2ccccc2)S(=O)(=O)c2ccc(C)cc2)cc1
→ 104	-1	i	1	-15	145	x
(70) CC(=O)N1CCc2cc(C(=O)CN3CCCCC3)ccc21
→ 98	1	x	x	x	x	-4.5
(71) S=C(Nc1ccc(Cl)cc1)N1CCCC1
→ 61	5	i	0.98	-17	96	-1.1
(72) NC(=O)CSc1nc(-c2ccccc2)c(-c2ccccc2)o1
→ 103	-2	i	0.9	-14	129	0.1
(73) CCCNC(=S)N1CCC(NC(=O)Nc2ccc(C)cc2)CC1
→ 101	1	i	0.93	x	x	x
(74) CCCN(c1ccc(C(C)C)cc1)S(=O)(=O)c1c(C)[nH]c(=O)[nH]c1=O
→ 99	-18	i	0.95	-48	103	-3.7
(75) Cn1c(NC(=O)c2ccccc2F)cc(=O)n(C)c1=O
→ 101	-3	i	0.88	x	x	-1.4
(76) CCOC(=O)C(Cc1ccccc1)C(=O)Nc1nccs1 (centres undefined)
→ 96	-6	i	0.93	x	x	-0.1

Complete entries as entered above:
S=C(Nc1ccc(Cl)cc1)N1CCCC1 is listed with RGS16-Gao HTS = 61; PKD1 kinase inh = 5; HSV augment = i; HSV augment primary fold = 0.98; INS promoter inh = -17; INS promoter inh cell count = 96; GALR2 agonist = -1.1
COc1ccc(N(Cc2ccccc2)S(=O)(=O)c2ccc(C)cc2)cc1 is listed with RGS16-Gao HTS = 104; PKD1 kinase inh = -1; HSV augment = i; HSV augment primary fold = 1; INS promoter inh = -15; INS promoter inh cell count = 145; GALR2 agonist = x

Random draw from the library. About 1.1% of those tested had a hit in this group.
